Six1-Eya2 blk – blocks human Six1 binding to Eya2; AlphaScreen GST-Six1/His-Eya2 binding, biochemical; hits give low values; control for the full effect not named in the record; activity change, % (concentration not given with the values); actives 0.56% (n = 360,000); in the data active = activity change below about -65%; inconclusive = about -30% to -65%; inactive = above about -30%
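GST-Six1 + His-Eya2 (5X stock: 250/500 nM); Tris pH 8.0, 300 mM NaCl, 0.05% BSA, 0.02% Tween 20; GSH donor/Ni acceptor beads; 1 h 37 °C dark; AlphaScreen readout.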
CtBP-E1A blk – blocks the CtBP interaction with E1A; AlphaScreen GST-E1A/His-CtBP binding, 1536-well; hits give low values; control for the full effect not named in the record; actives 0.49% (n = 340,000); activity change, % (test concentration not listed); in the data active means activity change below about -65%; inconclusive means about -30% to -65%; inactive means above about -30%; further: compound concentration not given in the record
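Steps: dispense buffer (Tris pH 8.0, NaCl 300 mM, TCEP 1 mM, BSA, Tween 20); add 5X protein mix (GST-E1A, His-CtBP, 125 nM each); pin 23 nL compound; 2 h at 37 °C, dark; add 5X beads (50 ug/mL); 1 h; read.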
* marks the source's active call; other numbers are inactive results. On the % scale 0 is the no-effect control and ±100 the full control effect.

| CtBP-E1A blk | Six1-Eya2 blk | Molecule |
| --- | --- | --- |
| -1 | 11 | COC(=O)C1=CN(c2cccc(OCc3ccccc3)c2)C(N)=C(C#N)C1c1ccccc1 (stereo unspecified) |
| 6 | 1 | COC(=O)C[C@@H]1CC[C@H](NC(=O)c2cnccn2)[C@@H](CO)O1 |
| 3 | 4 | O=C(C[C@@H]1CC[C@H](NC(=O)Nc2ccc(F)cc2)[C@@H](CO)O1)NCc1cccc(F)c1 |
| 14 | 28 | COc1ccc(NC(=O)C(C2CC2)n2c(=O)c(-c3cc4ccccc4[nH]3)nc3ccccc32)cc1 (stereo unspecified) |
| 1 | -5 | O=C1c2c(-c3ccc(Br)cc3)noc2CCN1Cc1cn(-c2ccccc2)nn1 |
| 2 | 2 | COC(=O)C[C@@H]1C=C[C@@H](NS(=O)(=O)c2ccc(OC)cc2)[C@@H](CO)O1 |
| -4 | -7 | CC(C)(C)NC(=O)C(c1ccc(C#N)cc1)n1c(=O)c(-c2ccco2)nc2ccccc21 (stereo unspecified) |
| -3 | -1 | Nc1ccc(CNC(=O)c2cc3cc(Cl)ccc3nc2N)cc1 |
| 2 | 0 | COc1cccc(C(=O)Nc2ccc3c(c2)OC[C@H](C)N(C(=O)C2CCCC2)C[C@@H](C)[C@@H](OC)CN(C)C3=O)c1 |
| 0 | -6 | Cc1cccc(C)c1NC(=O)C(c1ccccc1)n1c(=O)c(-c2ccccc2)nc2ccccc21 (stereo unspecified) |
| 3 | 2 | COC(=O)C[C@@H]1CC[C@H](NC(=O)Nc2cccc(F)c2)[C@@H](CO)O1 |
| 29 | 46 | CC(C)(C)NC(=O)C(C1CC1)n1c(=O)c(-c2cc3ccccc3[nH]2)nc2ccccc21 (stereo unspecified) |
| 2 | -3 | CCCCCCCCN1C(=O)[C@H](CC(=O)NCCCOC)C[C@@]2(C(=O)OC)CC(C)(C)CC=C12 |

Some of these compounds in order of heavy-atom count, low to high:
| CtBP-E1A blk | Six1-Eya2 blk | Molecule |
| --- | --- | --- |
| -3 | -1 | Nc1ccc(CNC(=O)c2cc3cc(Cl)ccc3nc2N)cc1 |
| 3 | 2 | COC(=O)C[C@@H]1CC[C@H](NC(=O)Nc2cccc(F)c2)[C@@H](CO)O1 |
| 1 | -5 | O=C1c2c(-c3ccc(Br)cc3)noc2CCN1Cc1cn(-c2ccccc2)nn1 |
| 3 | 4 | O=C(C[C@@H]1CC[C@H](NC(=O)Nc2ccc(F)cc2)[C@@H](CO)O1)NCc1cccc(F)c1 |
| 0 | -6 | Cc1cccc(C)c1NC(=O)C(c1ccccc1)n1c(=O)c(-c2ccccc2)nc2ccccc21 (stereo unspecified) |
| 2 | 0 | COc1cccc(C(=O)Nc2ccc3c(c2)OC[C@H](C)N(C(=O)C2CCCC2)C[C@@H](C)[C@@H](OC)CN(C)C3=O)c1 |

Full records, quoted from the list. Values in the order: CtBP-E1A blk, Six1-Eya2 blk
`Cc1cccc(C)c1NC(=O)C(c1ccccc1)n1c(=O)c(-c2ccccc2)nc2ccccc21` (stereo unspecified) across the screens: 0, -6
`CCCCCCCCN1C(=O)[C@H](CC(=O)NCCCOC)C[C@@]2(C(=O)OC)CC(C)(C)CC=C12` across the screens: 2, -3

High-throughput results deposited in PubChem by National Center for Advancing Translational Sciences (NCATS).

The list is partial; rates above refer to the full screens.
